# Compound activity deposited in PubChem BioAssay by Johns Hopkins Ion Channel Center.
# KCNQ2 block: KCNQ2 channel blockers in CHO-K1 cells – cell-based, FluxOR thallium flux, B-score, primary screen (AID 2156) | O88943 | B-score at 10 µM | 20 min; hits give low values; only compounds with negative scores are shown here; some inactives read as strong as hits | hit rate 1.1% among 310,000;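 active = fluorescence ratio B-score at most minus 3 library SDs, with starting brightness B-score within 2 library SDs, cut at about -5.5 in these data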
# Target sequence (O88943 whole entry, looked up): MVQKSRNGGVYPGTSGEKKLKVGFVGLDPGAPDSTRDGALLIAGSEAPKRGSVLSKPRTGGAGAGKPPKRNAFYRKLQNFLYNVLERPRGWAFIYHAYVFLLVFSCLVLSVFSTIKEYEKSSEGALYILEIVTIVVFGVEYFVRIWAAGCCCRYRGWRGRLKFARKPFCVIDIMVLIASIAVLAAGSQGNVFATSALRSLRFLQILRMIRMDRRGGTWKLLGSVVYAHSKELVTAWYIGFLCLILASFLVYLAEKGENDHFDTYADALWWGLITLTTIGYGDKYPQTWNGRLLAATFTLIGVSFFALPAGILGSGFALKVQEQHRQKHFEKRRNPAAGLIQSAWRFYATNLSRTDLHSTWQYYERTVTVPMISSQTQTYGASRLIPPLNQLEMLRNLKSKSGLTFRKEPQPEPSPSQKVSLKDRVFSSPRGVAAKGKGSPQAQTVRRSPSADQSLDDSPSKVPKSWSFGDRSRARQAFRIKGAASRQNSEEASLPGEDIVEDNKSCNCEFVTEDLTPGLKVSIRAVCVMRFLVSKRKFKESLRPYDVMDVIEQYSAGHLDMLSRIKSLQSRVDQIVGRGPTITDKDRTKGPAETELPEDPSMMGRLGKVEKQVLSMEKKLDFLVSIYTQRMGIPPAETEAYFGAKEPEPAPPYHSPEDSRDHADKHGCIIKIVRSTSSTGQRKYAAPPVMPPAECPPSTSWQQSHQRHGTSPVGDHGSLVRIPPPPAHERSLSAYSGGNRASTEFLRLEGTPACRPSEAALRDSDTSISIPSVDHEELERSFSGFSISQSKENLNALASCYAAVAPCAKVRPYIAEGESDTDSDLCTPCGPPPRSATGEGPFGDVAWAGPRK
# KCNQ2 block baseline: recorded beside KCNQ2 block, whose call it bears; B-score; measured here: initial fluorescence intensity artifact check;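 brightness before thallium and not channel activity; 0 = typical well and far values either way flag optical interference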
# * = called active by the depositor; i = inactive. Some of the compounds tested; the hit share may differ from the screen's.
KCNQ2 block	KCNQ2 block baseline	Structure
i	2.96	CC(C(=O)Nc1ccc(C(N)=O)cc1)N1C(=O)c2ccccc2S1(=O)=O (stereo not given)
i	0.03	C=CCn1c(SCc2ccc(F)cc2)nnc1-c1sc2nc(C)cc(C)c2c1N
i	1.05	Fc1ccccc1CSc1nnc(-c2cnccn2)n1Cc1ccco1
i	-0.79	O=C(OCc1cn(-c2ccc(Cl)cc2)nn1)c1ccccc1
i	0.82	c1cc2c(cc1C1=NNC(=NC3CC3)SC1)OCCO2
i	3.6	CC(CCc1ccccc1)NC(=O)CSc1cccc[n+]1[O-] (stereo not given)
i	1.09	O=c1[nH]c(/C=C/c2ccccc2Cl)nc2ccccc12
i	-0.13	O=C(NCc1ccco1)c1ccc(Cl)s1
i	0.84	N#CC1=C2SCN(c3ccc(F)cc3)CN2C(=O)CC1c1cccc(F)c1 (stereo not given)
i	0.05	Cn1c(SCC(=O)N/N=C/C=C\c2ccco2)nc2ccccc21
i	1.13	Nn1c(SCc2ccccc2F)nnc1-c1ccccn1
i	0.71	OC1(C#CCCN2CCCCC2)c2ccccc2-c2ccccc21
i	-1.33	O=C(NCc1ccc2c(c1)OCO2)c1sccc1Br
i	-0.23	COc1ccc(NC(=O)CN2CCC3(O)CCCCC3C2c2ccccc2OC)cc1 (stereo not given)
i	1.41	Cn1c(SCc2nc3ccccc3n2CCO)nc2ccccc21
i	-0.42	O=C(C1=C(O)C(=O)N(Cc2ccco2)C1c1cccs1)c1cccs1 (stereo not given)
i	-0.06	O=C(O)C1=CCNCC1
i	0.55	CCOc1cccc2sc(N(CCN(C)C)C(=O)/C=C/c3cccs3)nc12
i	-0.97	Cc1ccc(CNC(=O)C(=O)NCC2OCCN2S(=O)(=O)c2cccs2)cc1 (stereo not given)
i	-1.27	CC(C)n1c(C(=O)OCC(=O)NCc2ccc3c(c2)OCO3)cc2occc21
i	-0.63	CS(=O)(=O)N(CC(=O)NC1CC1)c1cccc(F)c1
i	0.03	Cc1ccc(C(=O)Nc2ccsc2C(=O)O)cc1
i	-0.04	CC(C)(C)NC(=S)N1CCC(C(=O)c2ccc(Cl)cc2)CC1
i	0.19	O=C(Nc1ccc(CN2CCOCC2)cc1)c1ccc(Cl)cc1
i	-0.68	O=C(COc1ccccc1)NNC(=O)c1cccs1
i	1.37	Cc1ccc(C2(c3ccc(C)cc3)CC2C(=O)NC(C)C)cc1 (stereo not given)
i	0.72	Cc1c(C(=O)NN2CCOCC2)cccc1[N+](=O)[O-]
i	0.48	CCOC(=O)c1ccc(NC(=O)CN2CCN(C(=O)C3CCCO3)CC2)cc1 (stereo not given)
i	0.81	CCOC(=O)c1ccc(NC(=O)Cn2nnc(-c3ccccc3)n2)cc1
i	1.14	O=C(Cn1cccc1C(=O)c1ccccc1)NCCCN1CCc2ccccc2C1

KCNQ2 block	KCNQ2 block baseline	Structure
i	-1.7	Cc1c(Cl)cccc1NC(=O)CSc1nncn1-c1ccccn1
i	1.86	O=S(=O)(c1ccc(OCC(O)CN2CCN(c3ccccc3)CC2)cc1)N1CCOCC1 (stereo not given)
i	1.4	O=C(Nc1cc(S(=O)(=O)Nc2ccc(Cl)cc2)ccc1N1CCCCC1)c1ccc(F)cc1Cl
i	0.44	C=C1CCN([C@@H](Cc2ccccc2)C(=O)NCc2ccccc2)S(=O)(=O)c2ccccc21
i	1.87	NNC(=O)CCN1CCCCC1
i	-3.11	COc1ccccc1CNC(=O)Cc1ccc(C)cc1
i	1.38	Cc1cc(NC(=O)CSc2nc(-c3ccccc3Cl)nc3c2c(=O)n(C)c(=O)n3C)no1
i	-0.56	COc1ccc(S(=O)(=O)NC2CC3CCC2C3)cc1Cl (stereo not given)
i	-0.04	Cc1ccc(-c2nn(-c3ccccc3)cc2C(=O)NCC2CCCO2)cc1 (stereo not given)
i	1	COc1cccc(NC(=O)Cn2c3ccc(F)cc3c3nc4n(c(=O)c32)CCCS4)c1
i	0.01	CCOC(=O)c1c(C)[nH]c(C)c1S(=O)(=O)N(C)CC(=O)NCc1ccc(C)cc1
i	0.52	COc1cc(C(CC(=O)N2CCCC2)c2c(OC)cc(OC)c3c(-c4ccccc4)cc(=O)oc23)cc(OC)c1OC (stereo not given)
i	0.03	CC(C)c1ccc(CNc2ccc3c(c2)ncn3C)cc1
i	-2.47	COc1ccccc1N(C)C(=O)c1cc(S(=O)(=O)N2CCCC2)cn1C
i	0.65	CN(C)/N=C/c1ccc([N+](=O)[O-])cc1[N+](=O)[O-]
i	0.18	CC1(C)OC(=O)C(=Cc2ccc(-c3ccc(S(N)(=O)=O)cc3)o2)C(=O)O1
i	-0.97	COc1ccc(C(C)(C)C)cc1NC(=O)COC(=O)c1cnc(C)cn1
i	0.74	CN(c1ccccn1)c1ncnc2[nH]ncc12
i	1.25	CN(c1ccccc1C(=O)Nc1ccc(S(=O)(=O)N2CCOCC2)cc1)S(C)(=O)=O
i	-0.05	CCOC(=O)N1CCN(Cc2cn3ccccc3n2)CC1
i	-0.67	CCn1c(=O)n(CC)c2cc(S(=O)(=O)N3CCC(c4ccccc4)CC3)ccc21
i	1.3	N=c1c(C(=O)NCc2ccco2)cc2c(=O)n3ccccc3nc2n1CCc1ccccc1
i	0.02	Fc1ccc(OCc2nc(-c3cccs3)no2)cc1
i	2.29	Cc1cc(O)cc(=O)n1CCc1ccccc1
i	4.23	O=C1OC(/C=C/c2ccccc2)=NC/1=C/C=C/c1ccccc1
i	-0.33	O=C(c1ccccc1)C(Sc1ncn[nH]1)c1ccccc1 (stereo not given)
i	0.88	CCOc1ccc(-c2nc(S(=O)(=O)c3ccccc3)c(N3CCOCC3)o2)cc1
i	-0.01	C=CCN1C(=O)/C(=C/C(=O)OC)S/C1=N\NC(=O)c1ccccc1
i	-0.02	CCOc1ccc(C(=O)CCC(=O)Nc2cc(C)ccn2)cc1
i	0.78	Cc1ccc(S(=O)(=O)N2CCN(C(=O)COC(=O)c3c(C)noc3C)CC2)c(C)c1

KCNQ2 block	KCNQ2 block baseline	Structure
i	0.16	CSc1nc(N2CCN(c3ccccc3)CC2)cc(N2CCN(c3ccccc3)CC2)n1
i	-0.55	COc1ccc(-c2nc3ccccn3c2Cl)cc1
i	-0.03	COc1ccc(OCC(=O)Nc2cccc(-c3nc4ccccc4[nH]3)c2)cc1
i	-0.01	COc1cc(OC)cc(-c2nc3nc(C)c(CCC(=O)NCc4ccco4)c(C)n3n2)c1
i	2.24	O=C(O)c1cccc(Cl)n1
i	0.57	Cc1cccc2c(C(=O)N3CCN(c4ccccn4)CC3)cc(-c3cccc(Br)c3)nc12
i	-0.1	CC1CCN(C(c2ccccc2)c2nnnn2C(C)(C)C)CC1 (stereo not given)
i	-0.3	Cc1ccc(N/C(=N/S(=O)(=O)c2cccs2)c2ccccc2)c(C)c1
i	0.08	CCOC(=O)Cn1ccc(NC(=O)c2ccc3c(c2)OCO3)n1
i	2.53	CC1C(=O)C(C)C(c2ccc3c(c2)OCO3)NC1c1ccc2c(c1)OCO2 (stereo not given)
i	1.13	COc1cccc2cc(C(C)N(CCCN3CCOCC3)C(=S)Nc3cc(C)cc(C)c3)oc12 (stereo not given)
i	-1.82	COc1ccccc1NC(CC(=O)c1ccccc1)C(=O)OCC(=O)c1ccc(C)cc1 (stereo not given)
i	1.01	c1ccc(-n2c(-c3ccncc3)nnc2-c2cccs2)cc1
i	0.69	O=C(CNC(=O)c1[nH]cnc1C(=O)NC(c1ccccc1)c1ccccc1)OCc1ccccc1
i	0.02	CCN(CC(=O)Nc1c(F)cccc1F)C(=O)CCC(=O)c1ccc(C)cc1
i	1.69	Cc1ccccc1CC1(CO)CCCN(C(=O)c2cc(-c3ccccc3)no2)C1 (stereo not given)
i	-1.63	COc1ccc(CCNC(=O)CSc2nnc(-c3ccc(F)cc3)c3ccccc23)cc1OC
i	-1.08	COC(=O)CSc1nc(-c2ccccc2)nc2ccc(F)cc12
i	0.04	Cc1cc(C)c(OCCNCc2ccccc2)c(C)c1
i	-1.58	COc1cc2nc(=S)n3[nH]c(COc4ccccc4C)nc3c2cc1OC
-5.69*	-0.97*	O=[N+]([O-])c1ccc(N2CCC(=NOCc3ccc(Cl)cc3)CC2)cc1
i	-0.1	O=C(CC1S/C(=N\S(=O)(=O)c2ccccc2)N(c2ccccc2)C1=O)Nc1ccc(F)cc1 (stereo not given)
i	0.12	Cc1cccc(N2C(=O)C3C4C=CC(C5CC45)C3C2=O)n1 (stereo not given)
i	1.26	Cc1ccc(NC(=O)c2ccccc2Br)cc1S(=O)(=O)N(C)C
i	-0.68	O=C(CCl)N=c1sccn1Cc1ccccc1Cl
i	-0.11	O=C(Nc1ccc2nsnc2c1)N1CCCCC1
i	0.18	CC[C@@H](C)[C@H](CN[C@H](CNC)C(C)C)NC[C@@H](C)c1ccc(CC(C)C)cc1
i	0.76	Cc1ccccc1SCC(=O)N/N=C/c1ccc(F)cc1
i	-0.03	CC1CN(C(=O)Cn2cc(S(=O)(=O)CC(=O)N(C)c3ccccc3)c3ccccc32)CC(C)O1 (stereo not given)
i	0.57	Cc1ccc2nc(NC(=O)C3=NN(c4ccccc4)C(=O)CC3)sc2c1

# Arranged by length of the SMILES (largest number first): part of the list above
KCNQ2 block	KCNQ2 block baseline	Structure
i	0.18	CC[C@@H](C)[C@H](CN[C@H](CNC)C(C)C)NC[C@@H](C)c1ccc(CC(C)C)cc1
i	-0.1	O=C(CC1S/C(=N\S(=O)(=O)c2ccccc2)N(c2ccccc2)C1=O)Nc1ccc(F)cc1 (stereo not given)
i	-1.82	COc1ccccc1NC(CC(=O)c1ccccc1)C(=O)OCC(=O)c1ccc(C)cc1 (stereo not given)
-5.69*	-0.97*	O=[N+]([O-])c1ccc(N2CCC(=NOCc3ccc(Cl)cc3)CC2)cc1
i	1.26	Cc1ccc(NC(=O)c2ccccc2Br)cc1S(=O)(=O)N(C)C
i	0.12	Cc1cccc(N2C(=O)C3C4C=CC(C5CC45)C3C2=O)n1 (stereo not given)
i	1.01	c1ccc(-n2c(-c3ccncc3)nnc2-c2cccs2)cc1

# Entries of single compounds, quoted from the list.
# CC(C(=O)Nc1ccc(C(N)=O)cc1)N1C(=O)c2ccccc2S1(=O)=O (stereo not given) reads KCNQ2 block = i; KCNQ2 block baseline = 2.96
# Cc1ccc(-c2nn(-c3ccccc3)cc2C(=O)NCC2CCCO2)cc1 (stereo not given) reads KCNQ2 block = i; KCNQ2 block baseline = -0.04

# Next section
KCNQ2 block	KCNQ2 block baseline	Structure
i	0.01	Cc1[nH]n(-c2ccccc2)c(=O)c1CCOC(=O)c1cccc(C(F)(F)F)c1
i	2.91	COc1cccc(NC(=O)CN(C)C(=O)c2cc(-c3ccc(F)cc3)nc3ccccc23)c1
i	0.13	O=C(Cc1ccc([N+](=O)[O-])cc1)Nc1cccnc1
i	0.27	CCOc1ccccc1Nc1nc2ccc(C)cc2n2cnnc12
i	0.1	CSc1ccccc1NC(=O)CN(c1cc(C)cc(C)c1)S(C)(=O)=O
i	1.31	CN(C(=O)c1nn(C)c2c1CS(=O)(=O)c1ccccc1-2)c1cccc(Cl)c1
i	1.23	O=C(OCc1c(F)cccc1Cl)c1cc([N+](=O)[O-])ccc1N1CCOCC1
i	-0.18	O=C(CN1C(=O)NC2(CCCCCC2)C1=O)c1ccc(Cl)s1
i	0.5	O=C(OCC(=O)N1CCc2ccccc21)c1ccccc1
i	-1	CN(C)CC/C=C1\c2ccc(F)cc2Sc2cc(F)c(Cl)cc21
i	0.23	CN(C)c1cccc(C(=O)n2cc(C(=O)c3cc(F)ccc3O)cn2)c1
i	0.89	O=S(=O)(c1ccc(Cl)cc1)N1CCN(Cc2c[nH]c3ccccc23)CC1
i	-2.93	O=C(NNC1=Nc2ccccc2SC1)c1ccccc1F
i	1.05	CCOC(=O)CNC(c1ccccc1)c1cc(Br)ccc1NC(=O)OCC (stereo not given)
i	0.03	COc1cc(C(CCN2CCCCC2)c2c(OC)cc(OC)c3c(-c4ccccc4)cc(=O)oc23)cc(OC)c1OC (stereo not given)
i	0.79	O=C(O)C(Cc1ccccc1)N1C(=O)/C(=C/c2cccnc2)SC1=S (stereo not given)
i	-1.04	COc1cc(OC)cc(C(=O)NC(C)c2cnn(-c3ccccc3C)c2C)c1 (stereo not given)
i	-2.34	CCN(CC(=O)Nc1ccc2c(c1)OCCO2)C(=O)CC(NC(C)=O)c1ccccc1 (stereo not given)
i	0.14	Cc1nnc(SCCc2ccccc2)[nH]c1=O
i	1.05	COc1ccc(N(C)C(=O)c2cc3c(s2)-c2c(C)cccc2OC3)c(OC)c1
i	-0.09	CC(C)CCN1C(=O)CCC1(C)C(=O)NC1CCCCCCC1 (stereo not given)
i	-1.69	O=C(CCc1ccccn1)N1CCCC(CNS(=O)(=O)c2cccs2)C1 (stereo not given)
i	0.94	c1coc(-c2nc3c4c5c(sc4ncn3n2)CCCC5)c1
i	-0.02	CC(/C=C/c1ccccc1F)=N\NC(=O)c1ccc(Cl)cc1
i	3.43	Cc1ccsc1/C=N/Nc1ncnc2nc[nH]c12
i	-0.16	CCOc1ccc(NC(=O)COC(=O)C23CC4CC(CC(C4)C2)C3)c([N+](=O)[O-])c1
i	-2.05	Cc1ccc(-n2nc3ccc(N)cc3n2)cc1
i	-0.1	O=C(c1ccc2c(c1)C(=O)N(c1ccc(Cl)cc1)C2=O)N1CCN(c2ccccn2)CC1
i	-1.02	O=C(CN1C(=O)CCC1=O)Nc1nc(-c2nc3ccccc3s2)cs1
i	-1.6	Cc1ccc(C)c(S(=O)(=O)N/N=C/c2ccc(N(C)C)cc2)c1
i	0.63	CCCCCC(=O)Nc1nc(C)c(-c2csc(Nc3cc(OC)ccc3OC)n2)s1
i	-1.36	CN(C)C(=O)CN1CCN(Cc2cn(C)nc2-c2ccc3c(c2)OCCO3)CC1

# 4 entries out of the list above, ordered by the number in KCNQ2 block baseline, highest first.
KCNQ2 block	KCNQ2 block baseline	Structure
i	0.27	CCOc1ccccc1Nc1nc2ccc(C)cc2n2cnnc12
i	0.13	O=C(Cc1ccc([N+](=O)[O-])cc1)Nc1cccnc1
i	-0.18	O=C(CN1C(=O)NC2(CCCCCC2)C1=O)c1ccc(Cl)s1
i	-1	CN(C)CC/C=C1\c2ccc(F)cc2Sc2cc(F)c(Cl)cc21
